# 2A Renilla: FMDV 2A StopGo reporter, Renilla signal; hit rate 0.32% among 120,000; Potency, µM (highest dose often 57.5 µM), for the others: at the top dose signal change, negative = less light; HEK cells with a luciferase reporter of 2A StopGo recoding; active means well fitted falling curve with a large enough effect; inconclusive means small, poorly fitted or top-dose-only effect; inactive means no such curve, though single readings can be large or run the other way; note: nearly all actives have a fitted effect of over 55% in size; overnight with compound
# 2A firefly: FMDV 2A StopGo reporter, firefly signal. HEK cells with a luciferase reporter of 2A StopGo recoding. Potency, µM (series often up to 57.5 µM), for the others: top-dose signal change, negative = less light. hit rate 0.23% among 120,000. AID 1745856; active = well fitted falling curve with a large enough effect; inconclusive = small, poorly fitted or top-dose-only effect; inactive = no such curve, though single readings can be large or run the other way; note: nearly all actives have a fitted effect of over 60% in size; overnight with compound
# * hit, by the source's call; ? = inconclusive; & = joins results of further samples; [ ] = dose if it differs, or a comment. % is set by controls: 0 for no effect and ±100 for the full control effect; potency is the fitted concentration of half-maximal effect.
# Results follow in this order: 2A firefly, 2A Renilla
- Cc1c(C(=O)OC2CCCCC2)[nH]c2c1C(=O)CC(c1ccc(C(C)(C)C)cc1)C2 (stereo not given)
  -9%, 26%
- Cc1cc(Cl)ccc1NC(=O)CN(c1ccccc1F)S(=O)(=O)c1ccccc1
  -2%, 39%[activator]
- Cc1cc(Br)ccc1NC(=O)CCS(=O)(=O)c1cccc2nonc12
  -1%, -4%
- Cc1ccc(Cn2cc(S(=O)(=O)c3ccc(C)cc3)c(=O)c3cc(F)c(N4CCCC4)cc32)cc1
  -4%, 10%
- CCCN1CCN(c2cc3c(cc2F)c(=O)c(S(=O)(=O)c2ccc(Cl)cc2)cn3C)CC1
  -15%, -9%
- CN1CCN(Cc2ccc(CNCc3ccc(C#N)cc3)cc2)CC1
  19%, 5%
- CCc1ccc(NC(=O)CC2C(=O)N(c3ccc(Cl)cc3)C(=O)N2Cc2cccs2)cc1 (stereo not given)
  15%, 49%[activator]
- CCOc1cc(/C=C2/NC(=O)NC2=O)ccc1OCc1ccc(Cl)cc1
  -3%, 7%
- CCOC(=O)Cn1c(=O)oc2cc(S(=O)(=O)N3CCN(c4ccccc4F)CC3)ccc21
  -14%, -20%
- CCc1c(C(=O)Nc2ccc3nc(C)sc3c2)cnn1-c1ccc(OC)nn1
  0%, 2%
- CCOc1ccc(NC(=O)CN2C(=O)C(c3ccccc3)=NC23CCCCCC3)cc1
  0%, 15%
- CCCCOc1cccc(C(=O)N(Cc2ccc(Cl)cc2)C2CCS(=O)(=O)C2)c1 (stereo not given)
  9%, -6%
- Cc1ccccc1C(=O)Nc1nc(-c2ccc(Br)cc2)ns1
  ?, 35µM*
- COC(=O)C1CN(Cc2cn(Cc3ccc(F)cc3)nn2)CCS(=O)(=O)N1Cc1ccc(F)cc1 (stereo not given)
  2%, 44%[activator]
- Cc1ccc(S(=O)(=O)c2c(C)c(C)n(C3CCCC3)c2NC(=O)C2CCCO2)cc1 (stereo not given)
  0%, 31%[activator]
- CN1CCN(C(=O)C2CCN(c3nc(Cl)nc4nc[nH]c34)CC2)CC1
  -6%, -14%
- CCOC(=O)c1cc(OC(=O)c2ccccc2F)n(-c2ccccc2)n1
  0%, -9%
- CC(=O)Nc1ccc(NC(=O)Cn2c(C)cc3ccccc32)cc1
  -10%, -13%
- CC1=C(C(=O)Nc2ccc(Cl)cc2)C(c2cccs2)n2nc(SCc3cccc(C)c3)nc2N1 (stereo not given)
  -24%, -7%
- CCOC(=O)c1c(C)[nH]c(C)c1S(=O)(=O)N1CCC(C(=O)Nc2ccc(OC)c(OC)c2)CC1
  -19%, 4%
- O=C(NCc1cccs1)c1cc(-c2cccnc2)nc2ccc(Cl)cc12
  17%, 14%
- O=C(CSc1nc2ccc(NC(=O)c3ccc(Br)cc3)cc2s1)NC1CCCCC1
  3%, -11%
- Cc1nn(C)c2c1c(C(F)(F)F)cc(=O)n2CC(=O)NCCC(C)C
  -25%, -1%
- O=C(c1ccc(CSc2nc3ccncc3n2Cc2ccc(F)cc2)cc1)N1CCCCCC1
  -15%, 5%
- Cc1cccc(NC(=O)Cn2nnc(C(=O)Nc3ccc(F)c(Cl)c3)c2N)c1
  4%, -6%
- CCc1cc(=O)n(CC(=O)Nc2ccccc2C)c(-n2nc(C)cc2C)n1
  1%, -5%
- CC(C)NC(=O)NC(=O)COc1ccc2ccc(=O)oc2c1
  18%, -14%
- CCc1ccc(C(=O)c2cnc3ccc(C)cc3c2S(=O)(=O)c2ccc(OC)cc2)cc1
  4%, -8%
- COc1ccc(NC(=O)c2cc(OC)c(OC)c(OC)c2)cc1NS(C)(=O)=O
  0%, 51%[activator]
- CCOCCc1nn2c(=O)cc(COC(=O)c3ccccc3NC(=O)c3ccc(C)cc3)nc2s1
  0%, -16%
- O=C(NCC1COc2ccccc2O1)c1ccco1 (stereo not given)
  0%, -2%
- C/C(=N\NC(=O)C1CC1c1ccccc1)c1ccc(C)c(C)c1 (stereo not given)
  4%, 26%
- COc1ccc(Cl)cc1NC(=O)N1CC(C)Oc2ccc(C)cc21 (stereo not given)
  -4%, 2%
- O=C(CCNC(=O)c1ccoc1)Nc1ccc(N2CCCC2)nc1
  0%, 0%
- COc1ccc(-n2nc(C(=O)N3CCN(c4ccccc4OC)CC3)c3c4ccccc4n(C)c3c2=O)cc1Cl
  -12%, -9%
- CC(C)(C)C(=O)NCCCC(=O)NC1CCCCC1
  -9%, -2%
- CCCOc1cccc(C(=O)Nc2cccc(NC(=O)c3ccc(C(C)(C)C)cc3)c2)c1
  107%[activator], -5%
- Cc1ccc(NC(=O)C(SC2CCCC2)c2ccccc2)cc1 (stereo not given)
  2%, -1%[1.06 µM]
- CCOc1ccc(CCNC(=O)c2oc(=O)c3ccccc3c2-c2ccc(C)cc2)cc1OCC
  -14%, -2%
- COc1ccc(-c2nc3cc(C(C)C)ccc3o2)cc1NC(=O)c1ccccc1[N+](=O)[O-]
  74%[activator], 23%
- COC(=O)c1ccccc1NC(=O)CNc1cc(Cl)ccc1N1CCOCC1
  3%, 41%[activator]
- Nc1nccnc1C(=O)Nc1ccc2ccccc2n1
  56%[activator], -9%
- CC(C)c1ccc(NC(=O)Cn2cnnc2C#N)cc1
  24%, -3%
- Cc1ccc(CC(=O)C(C#N)C(=O)Nc2ccccc2Cl)cc1 (stereo not given)
  5%, 7%
- O=C(CSc1nccn1Cc1ccc(F)cc1)Nc1nc2ccccc2s1
  54%[activator], -10%
- COC(=O)c1c(NC(=O)C2CCCCC2)sc(C(=O)N2CCOCC2)c1C
  -9%, 9%
- CCN(CC)C(=O)C1CCCN(c2ncnc3onc(C)c23)C1 (stereo not given)
  -2%, -8%
- O=C(CC(c1ccc(Cl)cc1)C1CCCCC1=O)c1ccccc1 (stereo not given)
  -18%, 83%[activator]
- CC(CNC(=O)Cn1ccc2cc(S(=O)(=O)N3CCCCCC3)ccc21)c1ccccc1 (stereo not given)
  ?, 40%[activator]
- CCNC(=O)NC(=O)CN(CC(C)O)c1ccccc1 (stereo not given)
  -2%, 2%

# Two entries picked at random from the list so far:
# Results follow in this order: 2A firefly, 2A Renilla
- Nc1nccnc1C(=O)Nc1ccc2ccccc2n1
  56%[activator], -9%
- CC(CNC(=O)Cn1ccc2cc(S(=O)(=O)N3CCCCCC3)ccc21)c1ccccc1 (stereo not given)
  ?, 40%[activator]

# Continued.
# Results follow in this order: 2A firefly, 2A Renilla
- Cc1ccc(-n2ncc(C(=O)NCCN3CCc4ccccc4C3)c2C2CCN(C(=O)OC(C)(C)C)CC2)cc1C
  -23%, 3%
- COc1ccc(NC(=O)Cn2c(SCc3ccc(F)cc3)nc3cccnc32)c(OC)c1
  7%, ?
- COc1cc(C(=O)Nc2cccc(OCc3cc(=O)n4c(C)csc4n3)c2)cc(OC)c1OC
  72%[activator], 41%[activator]
- Cc1ccccc1NC(=O)c1cnn2c1NC(C(=O)O)=CC2/C=C/c1ccccc1 (stereo not given)
  52%[activator], -2%
- O=C(O)c1ccc2c(c1)c(C(C(=O)O)N1CCN(c3ncccn3)CC1)cn2Cc1ccccc1 (stereo not given)
  -1%, -12%
- O=C(NCc1noc2ccccc12)N1CCN(c2ccccc2)CC1
  40%[activator], -12%
- CC(=O)c1ccc(NC(=O)c2ccc(NC(=O)CCS(=O)(=O)c3cccs3)cc2)cc1
  -4%, -10%
- CCN(Cc1ccccc1)C(=O)CCc1c(C)nc2c(c(C)nn2-c2ccc(C)c(C)c2)c1C
  -15%, -7%
- COc1ccc(C(=O)Nc2ccc3nc(N4CCCCC4)cc(C)c3c2)cc1OC
  -17%, -2%
- Cc1ccc(Cl)cc1Nc1sc(C(=O)c2ccccc2)c(N)c1S(=O)(=O)c1ccccc1
  21%, 9%
- CCCOc1ccc(Br)cc1C1C(C(=O)OC)=C(C)Nc2nnnn21 (stereo not given)
  -2%, 23%
- CCSc1nnc(NC(=O)c2cc(=O)c3cc(C)c(C)cc3o2)s1
  -15%, -14%
- CCOc1ccc(NC(=O)[C@H](Cc2ccccc2)N2Cc3ccccc3C2=O)cc1
  -15%, -2%
- CNCc1ccc(OCc2ccccc2Cl)c(OC)c1
  63%[activator], 2%
- CCN(CC)c1ccc(NC(=O)c2cc(C)nc3c2c(C)nn3-c2cccc(F)c2)c(C)c1
  -7%, 0%
- CCN1CCN(c2nnc(-n3cccc3C(=O)Nc3cccc(OC)c3)s2)CC1
  5%, 24%
- COc1ccc(-c2nc3cc(C(C)C)ccc3o2)cc1NC(=O)c1ccc(C)c(Cl)c1
  3%, -1%
- CC(C)CCNC(=O)c1nccnc1N
  68%[activator], 8%
- Cc1cc(=S)nc[nH]1
  21%, 18%
- CCCCCCCNC(=O)CC#N
  11%, 9%

# Brought forward from above: two entries; new compounds follow.
# Results follow in this order: 2A firefly, 2A Renilla
- Cc1cc(=S)nc[nH]1
  21%, 18%
- CCCCCCCNC(=O)CC#N
  11%, 9%
- NC(=O)c1ccccc1NC(=O)Cn1nc(Cc2cccnc2)c2ccccc2c1=O
  -16%, -11%
- CCC(NC(=O)C1CCCO1)c1ccc(C)cc1 (stereo not given)
  -11%, -1%
- Cc1cccc(CNC(=O)c2ccc3oc(=O)n(Cc4ccccc4)c3c2)c1
  -8%, 21%
- COc1ccc(NC(=O)c2cn(C)c3ccccc23)c(OC)c1
  15%, 4%
- c1cncc(-c2[nH]ncc2CNCc2cccs2)c1
  -10%, -11%
- CC(=O)c1ccc(NC(=O)Cn2c(=O)c3c(ncn3C3CCCC3)n(Cc3ccccc3)c2=O)cc1
  -4%, -4%
- C=C(C)CNC(=S)N/N=C/C(C)c1ccccc1 (stereo not given)
  8%, 0%
- COc1ccccc1NC(=O)c1c(C)cc(C)nc1SCC(=O)Nc1ccc(C)c(C)c1
  -17%, 35%[activator]
- Cc1ccc(NC(=O)c2sc3nc(-c4cc5ccccc5oc4=O)[nH]c(=O)c3c2C)c(C)c1
  -5%, -5%
- CCCN1C(=O)C(Cc2nc3ccccc3c(=O)n2C)c2cc(Br)ccc21 (stereo not given)
  3%, 2%
- Oc1c(C(c2ccccc2F)N2CCN(Cc3ccccc3)CC2)sc2nc(-c3ccco3)nn12 (stereo not given)
  0%, 59%[activator]
- C/C(=N\NC(=O)c1cccs1)c1ccc(C)cc1
  64%[activator], 10%
- Cc1cc2c(cc1S(=O)(=O)CCC(=O)N1CCCCC1C)OCC(=O)N2 (stereo not given)
  4%, 7%
- O=C(Cc1ccc(C(F)(F)F)cc1)Nc1ccc(F)cc1Cl
  5%, -8%
- CC(=O)Nc1ccc(S(=O)(=O)N2CCC(n3c(C)nc4cccnc43)CC2)cc1
  -7%, -6%
- CCOc1ccc(NC(=O)CCn2c(-c3ccc(F)cc3)cc(C(C)=O)c2C)cc1
  1%, 0%
- COc1ccc(Br)cc1C(=O)Nc1ccc(-c2nc3cc(Cl)ccc3o2)cc1
  29%, -3%
- COc1cc(Cl)c(C)cc1NC(=O)c1cc2ccc3cccnc3c2[nH]1
  0%, -13%
- O=C(Nc1cccc(Br)c1)c1cc(-c2ccc3c(c2)OCCO3)on1
  94%[activator], 9%
- O=C(Nc1ccc2oc(-c3ccncc3)nc2c1)c1ccccc1Cl
  13%&45%, ?
- O=C(c1cc(=O)[nH]c2ccccc12)N1CCC(CCc2ccc(O)cc2)CC1
  -14%, 22%
- O=C(COC(=O)CSc1ccc2ccccc2c1Br)NCc1ccco1
  -7%, -6%
- COc1ccc(CCNCc2c(C(=O)O)c(C)n(Cc3cccc(C)c3)c2C)cc1OC
  -22%, 3%
- COc1ccc2oc(=O)c(S(=O)(=O)c3cccc(Cl)c3)cc2c1
  -14%, -12%
- CCN1C(=O)C(Cc2nc3ccccc3c(=O)n2-c2ccc(OC)cc2)c2ccccc21 (stereo not given)
  -4%, 39%[activator]
- COc1ccc2oc(=O)c(C(=O)Nc3ccccc3OC)cc2c1
  89%[activator], 13%
- Cc1ccc(Cn2cc(/C=C(\C#N)C(N)=O)c3ccccc32)cc1
  4%, 7%
- COc1ccc(NC(=O)C2CCCN(c3nnc(-n4c(C)ccc4C)s3)C2)cc1OC (stereo not given)
  113%[activator], 74%[activator]
- Cc1cc(COc2ccc(C(=O)c3ccc(Cl)cc3)cc2)no1
  55%[activator], 7%
- COc1ccc(C(=O)Oc2ccc(C3NC(=O)c4c(sc5c4CCN(C)C5)N3)cc2OC)cc1 (stereo not given)
  9%, 2%
- COc1ccc(NS(=O)(=O)c2ccc3oc(SC(C)C(=O)N4CCC(C)CC4)nc3c2)cc1 (stereo not given)
  ?, 63%[activator]
- COc1ccc(Cn2c(SCc3ccc(C(=O)NC4CCCC4)cc3)nc3cccnc32)cc1
  -20%, 3%
- CCCc1c(C)nc2c(C)cccc2c1SCC(=O)O
  2%, -5%
- CC(C)c1cccc(C(C)C)c1NC1=NS(=O)(=O)c2ccccc21
  -18%, 6%
- CCCNC(=O)c1nnn(-c2ccc(C)cc2)c1CCC
  33%[activator], 4%
- CC(C)CN(CC(C)C)C(=O)Cn1nc(C(=O)O)c2ccccc2c1=O
  0%, -8%
- CC(SC1=NS(=O)(=O)c2ccccc21)C(=O)O (stereo not given)
  0%, 15%
- CN(C)c1nc(N)nc(COc2ccccc2Cl)n1
  32%[activator], -2%
- Cc1ccc2nsnc2c1NC(=O)c1cc(Cl)ccc1Cl
  18%, 7%
- CN(CC(=O)Nc1ccc(Cl)cc1)C(=O)c1cccc(S(=O)(=O)NCC2CCCO2)c1 (stereo not given)
  19%, 153%[activator]
- O=C(/C=C/c1ccccc1)N1CCN(Cc2cc(=O)n3nc(-c4ccccc4F)sc3n2)CC1
  2%, -9%
- CS(=O)(=O)NC1CCCN(C(=O)c2ccc(F)cc2F)C1 (stereo not given)
  -13%, -4%

# This is a subset; count on the stated rates, not on these rows.
